TRPML1 agonist: human mucolipin-1 channel agonism. Q9GZU1. TRPML1-expressing cells, Ca2+ dye fluorescence, FDSS; host cell line not named in the record; reference of the full effect not given here. activation, % (test concentration not listed). actives 0.12% (n = 410,000); in the data active = activation above about 50%; inconclusive = about 30% to 50%; inactive = below about 30%; note: 0% is about no effect; the text of the record puts the active cut at 80%
Target sequence (Q9GZU1 whole entry, looked up): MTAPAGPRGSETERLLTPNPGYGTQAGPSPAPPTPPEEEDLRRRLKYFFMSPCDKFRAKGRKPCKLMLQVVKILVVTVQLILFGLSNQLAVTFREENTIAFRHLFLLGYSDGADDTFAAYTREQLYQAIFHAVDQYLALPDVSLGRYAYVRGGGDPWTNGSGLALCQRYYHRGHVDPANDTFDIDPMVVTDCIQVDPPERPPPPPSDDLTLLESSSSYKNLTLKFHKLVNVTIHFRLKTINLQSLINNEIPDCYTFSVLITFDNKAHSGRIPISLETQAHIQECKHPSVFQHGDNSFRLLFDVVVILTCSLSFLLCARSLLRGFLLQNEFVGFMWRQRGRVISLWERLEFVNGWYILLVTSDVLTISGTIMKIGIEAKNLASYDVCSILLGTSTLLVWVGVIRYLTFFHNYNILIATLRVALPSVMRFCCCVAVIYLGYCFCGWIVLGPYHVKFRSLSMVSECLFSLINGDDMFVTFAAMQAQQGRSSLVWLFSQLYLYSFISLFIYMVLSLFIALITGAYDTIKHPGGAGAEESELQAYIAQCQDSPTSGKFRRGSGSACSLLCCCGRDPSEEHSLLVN
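TRPML1-DL cells, Tet-induced overnight (~16 h, 37 degrees C), loaded 45-90 min at room temperature with Ca8 no-wash calcium dye plus quencher. FDSS fluorescence: 10 s baseline, compound pin-transfer, 110 s agonist read, then EC80 54-4 (4uM final) and 110 s antagonist read.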
CtBP-E1A blk: CtBP/E1A binding inhibition; activity change, % (concentration not given with the values); AlphaScreen GST-E1A/His-CtBP binding, 1536-well; stronger effect = lower value; control for the full effect not named in the record; AID 651724; actives 0.49% (n = 340,000); in the data active means activity change below about -65%; inconclusive means about -30% to -65%; inactive means above about -30%; note: % is set by controls: 0 for no effect and ±100 for the full control effect
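AlphaScreen with 125 nM GST-E1A and 125 nM His-CtBP (5X stocks) in Tris pH 8.0, 300 mM NaCl, BSA, Tween 20, TCEP. Compounds preincubated 2 h at 37 deg C, then glutathione donor/nickel acceptor beads added for 1 h at 37 deg C in dark.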
Six1-Eya2 blk: Six1/Eya2 interaction inhibition; Q15475+O00167; AlphaScreen GST-Six1/His-Eya2 binding, biochemical; stronger effect = lower value; control for the full effect not named in the record; activity change, % (test concentration not listed); actives 0.56% (n = 360,000); in the data active = activity change below about -65%; inconclusive = about -30% to -65%; inactive = above about -30%; note: % is set by controls: 0 for no effect and ±100 for the full control effect; compound concentration not given in the record
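AlphaScreen with GST-Six1 and His-Eya2 (5X mix: 250 nM and 500 nM), glutathione donor and nickel acceptor beads; buffer 50 mM Tris pH 8.0, 300 mM NaCl, 1 mM TCEP; 1 h at 37 C in the dark.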
TRPV1 potentiator: potentiators of human vanilloid receptor 1 (TRPV1); Q8NER1; potentiation, % at 8.33 µM; actives 0.02% (n = 320,000); TRPV1-expressing cells, Fluo-8 calcium influx, capsaicin EC20 potentiation; host cell line not named in the record; control for the full effect not named in the record; active means potentiation above 80%; inconclusive means 30% to 80%; inactive means below 30%; note: 0% is about no effect
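Cells expressing TRPV1 were dye-loaded with Fluo-8 and read kinetically: 10 s baseline, 3 min after compound (agonist portion), then 2 min after EC20 capsaicin (allosteric enhancer portion). Calcium-bound dye fluorescence at 480/520 nm.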
D2 PAM: human D2 receptor positive allosteric modulation; P14416; actives 0.23% (n = 360,000); DiscoveRx D2 beta-arrestin cells, luminescence, 90 min; 100% = 57 uM dopamine signal; potentiation, % (test concentration not listed); active = potentiation of 50% or more; inconclusive = 30% to 50%; inactive = 30% or less;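 note: compound concentration not given in the record; tested on top of an EC20 dose of dopamine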
Target sequence (P14416 whole entry, looked up): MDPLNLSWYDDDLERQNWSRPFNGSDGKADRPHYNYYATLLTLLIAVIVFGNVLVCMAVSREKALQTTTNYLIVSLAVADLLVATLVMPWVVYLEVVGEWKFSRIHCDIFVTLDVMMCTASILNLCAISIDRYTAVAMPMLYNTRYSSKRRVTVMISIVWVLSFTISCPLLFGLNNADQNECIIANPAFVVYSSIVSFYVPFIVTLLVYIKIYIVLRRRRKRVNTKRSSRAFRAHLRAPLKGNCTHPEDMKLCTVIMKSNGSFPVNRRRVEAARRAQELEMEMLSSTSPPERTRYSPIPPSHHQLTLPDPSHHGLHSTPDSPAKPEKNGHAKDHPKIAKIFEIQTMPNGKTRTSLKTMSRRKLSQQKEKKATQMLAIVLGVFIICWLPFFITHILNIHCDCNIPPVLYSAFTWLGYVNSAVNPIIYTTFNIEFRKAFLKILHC
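PathHunter beta-arrestin assay in DiscoveRx D2 cells. Compounds were added with an EC20 of dopamine (50 nM final) for 90 min at 37 deg C. Luminescence was read 1 h after detection reagent, with 57 uM dopamine as the EC100 control.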
TRPML1 blocker: blocks the human TRPML1 channel. Q9GZU1. TRPML1-inducible cells, Ca2+ dye fluorescence, FDSS; stronger effect = lower value; inhibition of EC80 agonist-evoked calcium signal. activity change, negative = inhibition, % (concentration not given with the values). actives 0.02% (n = 390,000); in the data active means activity change below about -50%; inconclusive means about -30% to -50%; inactive means above about -30%;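 note: stimulus is agonist 54-4 at its EC80 concentration; % is set by controls: 0 for no effect and ±100 for the full control effect; compound concentration not given in the record; the text of the record puts the active cut at -80%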
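Calcium fluorescence in TRPML1-DL cells induced overnight with Tet: a 110 s read after compound pin addition, then a 110 s antagonist read after challenge with 54-4 at 4 uM final (EC80).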
Numbers without * were called inactive; ? = inconclusive; · = not tested or not shown; & = joins results of further samples.

Structure,TRPML1 agonist,CtBP-E1A blk,Six1-Eya2 blk,TRPV1 potentiator,D2 PAM,TRPML1 blocker
O=C(c1ccc2c(c1)OCO2)N1CCC2(CC1)Oc1ccc(F)cc1C(=O)C21CC(c2cccnc2)=NO1 (centres undefined),-0.5,0,13,?,6,-7
O=c1c2ccccc2cnn1Cc1n[nH]c(=S)n1-c1ccccc1Cl,0.5,0,10,20,-5,6
Cc1ccc(N2CC(=O)Nc3c(oc4nc(-c5ccccc5)cc(C)c34)C2=O)cc1,0.1,2,4,-4,-5,7
O=C(Cn1c(=O)c2c(ncn2Cc2ccccc2)n(Cc2ccccc2)c1=O)N1CCc2ccccc21,0.9,-5,-5,0,-9,12
COCc1cc(C)nc(SCC(=O)Nc2ccc(N3CCOCC3)cc2)c1C#N,0.9,11,2,7,-9,1
O=C(CSc1nnc(-c2cnccn2)n1Cc1ccco1)c1ccccc1,0.8,-11,-2,9,2,0
Cc1cccc(OCc2nnc(SCC(=O)N3c4ccccc4Sc4ccc(Cl)cc43)o2)c1,0.6,6,7,6,14,21
Cc1nc2c(cnn2-c2ccccc2Cl)c(=O)n1-c1ccc(C(C)C)cc1,94*,-10,1,?,6,-11&-9
COc1ccccc1-c1nc2n(n1)C(c1ccccc1Cl)C(C(N)=O)=C(C)N2 (centres undefined),-0.1,1,-4,·,-2,-9
N#CC1=C(N)N(c2ccccc2)C(c2ccccc2)C1(C#N)C#N (centres undefined),-0.2,0,-14,-5,25,10

(list continues)
Structure,TRPML1 agonist,CtBP-E1A blk,Six1-Eya2 blk,TRPV1 potentiator,D2 PAM,TRPML1 blocker
CC1(C)CC(=O)C=C(Nc2ccc(OCC(F)(F)C(F)F)cc2)C1,0.5,3,-4,-10,14,-18
O=S(=O)(Nc1ccc(-c2cn3cccnc3n2)cc1)c1ccccc1,0.3,·,1,6,12,4
C=CC(O)(C#CCN(CC)CC)c1ccccc1 (centres undefined),0.4,-6,-1,-4,-6,15
CN=c1scc(-c2c[nH]c3ccccc23)n1C,2.9,1,1,8,-4,-6
COCCn1cnc2c1c(=O)n(Cc1ccc(C#N)cc1)c(=O)n2Cc1ccccc1,-0.5,2,3,-4,0,9
COc1ccc(S(=O)(=O)N2CCCOC2CNC(=O)C(=O)NCc2ccco2)cc1C (centres undefined),-0.4,·,3,14,-14,-8
Cc1cccc2sc(N(CCCN(C)C)C(=O)c3sc4ccccc4c3Cl)nc12,0.1,-11,-26,0,-30,-20
CC(=O)OC1C=CCC2C(=O)c3cccc(O)c3C(O)C12 (centres undefined),0.4,-1,3,·,25,3
CC(OC(=O)c1cc(=O)c2ccccc2o1)C(=O)c1ccccc1 (centres undefined),-0.7,·,7,-5,4,-4
C=Cc1c(C)c2cc3[nH]c(cc4nc(cc5nc(cc1[nH]2)C(C)=C5CCC(=O)O)C(CCC(=O)O)=C4C)c(C)c3C=C,-0.8&-0.1,2&114,1&139,-15,0&-16,-14

Other structures follow.
Structure,TRPML1 agonist,CtBP-E1A blk,Six1-Eya2 blk,TRPV1 potentiator,D2 PAM,TRPML1 blocker
CCOC(=O)NC(NC(=S)Nc1ccccc1[N+](=O)[O-])C(Cl)(Cl)Cl (centres undefined),0.4,2,-4,13,-21,-8
COc1cccc(OCc2cc(/C=N/NC(=O)c3ccn[nH]3)ccc2OC)c1,-1.5,-1,-3,-3,0,19
COc1cc(-c2nc(C(=O)NC3CCCCC3)cc3c2[nH]c2ccccc23)cc(OC)c1OC,·,-4,0,7,-13,·
CCN(CC)S(=O)(=O)c1cccc(NC(=O)c2cncc(Br)c2)c1,2.4,·,-6,-1,4,0
CCOc1ccc(CC(=O)Nc2c(C(=O)Nc3ccccc3)oc3ccccc23)cc1OCC,0.6,0,6,1,9,52
CC(C)COCC(CN(Cc1ccccc1)c1ccccc1)N1CCCC1 (centres undefined),1.5&-0.8,-18,-16,-10,-30,24
O=C(NCCN1CCOCC1)C(=O)c1c[nH]c2ccccc12,-0.3,-11,0,-6,-6,-4
Nc1c(C(=O)c2ccccc2)sc2c1c(=O)[nH]c(=O)n2-c1ccccc1,0.2,-5,-2,-2,-21,-7
c1ccc(Nc2cc(-c3ccccc3)nc3ncnn23)cc1,0.8,-4,-3,0,-3,12
COc1ccc(NC(=O)c2cccc3c(-c4cccnc4)coc23)cc1,0.5,-13,-8,·,-13,22

Continued.
Structure,TRPML1 agonist,CtBP-E1A blk,Six1-Eya2 blk,TRPV1 potentiator,D2 PAM,TRPML1 blocker
CC(C)c1[nH]nc2c1C(c1ccco1)C(C#N)=C(N)O2 (centres undefined),2.2,·,1,6,5,-9
O=C(/C=C/c1ccc(O)cc1)c1ccc(O)cc1O,-0.4,6,5,9,-10,28
CCC(=O)c1c[nH]c(C(=O)NCCCN2CCOCC2)c1,-0.5,-1,0,·,-42,-18
COc1cc(/C=N/NC(=O)c2cc(C3CC3)[nH]n2)cc(OC)c1OC,-1.0,-19,-4,6,-3,-20
O=C(CCN1C(=O)c2ccccc2C1=O)N1CCN(C(=O)c2ccccc2)CC1,1.0,7,10,8,11,3
Cc1ncoc1C(=O)N1CCCC(C(=O)c2cccc3ccccc23)C1 (centres undefined),-0.8,·,4,-18,-12,6
N#Cc1ccccc1OCc1cn(CC(=O)c2ccc(O)cc2)nn1,-0.5,0,-3,·,-24,22
COc1ccc(C(O)c2ncc(-c3cccc(F)c3)[nH]2)cc1F (centres undefined),-0.5,-1,-8,·,-7,·
COCc1cc(=O)[nH]c(/N=C(\N)Nc2ccc(Cl)c(Cl)c2)n1,0.0,6,-2,-2,-15,-7
O=C(c1cccc(Cl)c1)N1CCC2CC1c1cc(-c3ccc(F)cc3)ccc12 (centres undefined),2.0,-5,-4,·,-5,-13

Further structures
Structure,TRPML1 agonist,CtBP-E1A blk,Six1-Eya2 blk,TRPV1 potentiator,D2 PAM,TRPML1 blocker
COc1cccc(CC(=O)NN2C(=O)NC3(CCCCC3)C2=O)c1,-0.7,2,22,-2,0,-11
O=C(/C=C/c1ccc([N+](=O)[O-])cc1)NCCOc1ccc(F)cc1,5.0,·,0,-2,?,13
Cc1ccc(F)cc1NC(=O)N1CCCN(c2ccc(C(F)(F)F)cn2)CC1,-0.1,1,3,-31,0,-9
COc1ccc(C(=O)c2cc3cccc(OC)c3o2)cc1,1.4,1,5,-22,-4,6
CCSc1nc2nc(C)cc(C)n2n1,-0.4,1,-1,-14,-2,-1
C#CCOCCOCCOCCNc1nc(N2CCN(C(=O)[C@H](CCCN=C(N)N)n3cc(C(N)[C@@H](C)CC)nn3)CC2)nc(N2CCN(C(=O)[C@H](CCC(=O)O)n3cc([C@@H](N)CO)nn3)CC2)n1 (some centres undefined),0.1,-19,-7,·,·,27
C=CCNC(=S)Nc1c(C(=O)OC)[nH]c2cc(OC)ccc12,-0.5,·,-2,2,-20,12
COc1ccc(C2C(=O)N(CCc3ccccc3)CC(=O)N2C2CCCCC2)cc1 (centres undefined),2.2,5,4,-25,-6,5
COc1ccc(Cl)c2sc(N3CCN(C(=O)c4ccco4)CC3)nc12,-0.3,-4,-14,-14,-1,18
CC(C)c1ccccc1NC(=O)COC(=O)CCN1C(=O)/C(=C\C=C\c2ccccc2)SC1=S,0.3,0,-4,5,2,-22

Next part.
Structure,TRPML1 agonist,CtBP-E1A blk,Six1-Eya2 blk,TRPV1 potentiator,D2 PAM,TRPML1 blocker
COc1ccc(OC)c2[nH]c(=O)c(CCNC(=O)c3ccc(Br)o3)cc12,0.0,-3,-6,10,2,3
Cc1cc(NS(=O)(=O)c2ccc(NC(=O)c3cc4c(=O)n5ccccc5nc4s3)cc2)nc(C)n1,0.6,·,-22,-8,-1,10
COc1ccc(C(C)(C)C)cc1NC(=O)c1c(C)noc1C,1.7,10,3,-19,-4,4
CC12CN(C(=O)c3ccco3)CC(c3ccccc3)(CN(C(=O)c3ccco3)C1)C2=O,-0.5,1,8,4,0,-16
COc1ccc2[nH]cc(S(=O)(=O)c3ccc(C)cc3)c2c1,0.3,-16,3,7,-2,7
Nc1c(-c2ccccn2)cnn1-c1nc(-c2ccc(F)cc2)cs1,2.0,24,0,?,-7,-11
CCc1ccc(-c2cc3c(=O)n(CC(=O)NCCCN4CCN(CC)CC4)nc(C)n3n2)cc1,-0.5,1,0,-11,-11,0
O=C1CCCCCC1C1(O)C(=O)Nc2ccc(Br)cc21 (centres undefined),-0.1,0,10,4,6,-6
CCS(=O)(=O)c1ccc2oc(Nc3ccc(OC)c(OC)c3)nc2c1,-0.3,-10,-19,-3,0,0
Cc1ccc(NC(=O)COC(=O)c2ccccc2F)cc1S(=O)(=O)N1CCCCC1,0.3,4,-18,-18,-20,-5

(continued)
Structure,TRPML1 agonist,CtBP-E1A blk,Six1-Eya2 blk,TRPV1 potentiator,D2 PAM,TRPML1 blocker
COc1ccc(CNC(=O)CN2CCN(S(=O)(=O)c3cccs3)CC2)cc1OC,-0.1,7,-2,4,-4,7
COC(=O)c1ccccc1NC(=O)CN(c1cc(OC)ccc1OC)S(C)(=O)=O,-0.5,5,1,-8,-21,13
COc1ccc(C(=O)NCc2ncccc2C)cc1OC1CCN(C(C)=O)CC1,0.4,9,-9,15,-8,7
COc1ccc(CNC(=O)COC(=O)c2n[nH]c3ccccc23)cc1,0.5,3,-9,-4,20,51
Cc1ccc(S(=O)(=O)NCCNC(=O)CN2CCOCC2)cc1,-0.2,2,0,-3,2,-11
O=C1C=C(NCc2ccco2)C2(CCCCC2)O1,-0.7,4,2,-25,-23,1
N#C/C=C/C(=C\Nc1ccc(Cl)cc1)S(=O)(=O)c1ccccc1,0.2,7,-4,-6,1,-13
COc1cccc(C(=O)N2CCN(c3nc4cc(C)cc(C)c4cc3C#N)CC2)c1,4.5,3,17,·,3,2

Part of the list above in order of heavy-atom count, rising.
Structure,TRPML1 agonist,CtBP-E1A blk,Six1-Eya2 blk,TRPV1 potentiator,D2 PAM,TRPML1 blocker
CCSc1nc2nc(C)cc(C)n2n1,-0.4,1,-1,-14,-2,-1
CCC(=O)c1c[nH]c(C(=O)NCCCN2CCOCC2)c1,-0.5,-1,0,·,-42,-18
O=C(NCCN1CCOCC1)C(=O)c1c[nH]c2ccccc12,-0.3,-11,0,-6,-6,-4
COc1cc(-c2nc(C(=O)NC3CCCCC3)cc3c2[nH]c2ccccc23)cc(OC)c1OC,·,-4,0,7,-13,·
